KSHV LANA nucl – LANA-nucleosome interaction inhibition | FITC-LANA1-23 / chicken nucleosome fluorescence polarization; hits give low values | z-score (concentration not given with the values) | 51,000 tested, 0.3% active;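 active = both repeat wells score below -2 in polarization z-score versus plate sample wells, excluding overly bright wells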;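 also: 100 nL library stock added to about 30 µL; numbers are from one replicate; some results filed as inactive read as strong as hits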
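Assay system: FITC-LANA peptide and chicken nucleosomes; input: 240 nM purified chicken nucleosomes (480 nM peptide binding sites), final; also added: 50 nM FITC-LANA1-23 probe; medium: TEN-BT buffer, pH 7.5; doses: pin-transferred compound, 100 nL; times: 10–45 min, room temperature; technique: fluorescence polarization; replication: duplicates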
BasE inh – blocks the Acinetobacter baumannii siderophore enzyme BasE; purified BasE, fluorescence polarization binding displacement; inhibition, % (no concentration beside the values); 84,000 tested, 0.1% active; AID 485350;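 active = both replicates above 25% with normal brightness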;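 also: 0% = negative plate control signal and 100% = positive plate control signal; stock transfer was 100 nL into about 30 µL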
Starred values were filed as active, the others as inactive; · = no result given; & = joins results of further samples.

CCCN1CCCC[C@H]1C(=O)Nc1c(C)cccc1C
  KSHV LANA nucl: 0.773 | BasE inh: ·

CN1C(=O)N(S(=O)(=O)c2ccc(F)c(F)c2F)C(=O)C1(C)C
  KSHV LANA nucl: · | BasE inh: 0.5

CC1CC(=O)Nc2ccccc2N1C(=O)c1ccco1 (configuration not stated)
  KSHV LANA nucl: -1.02 | BasE inh: 2.9

CC(NC(=O)c1cc(-c2ccc3c(c2)OCO3)nc2ccccc12)C1CCCO1 (configuration not stated)
  KSHV LANA nucl: -0.573 | BasE inh: 1.5

CCc1nn(C(CC)C(=O)NCc2ccccc2F)c(=O)c2cc3occc3n12 (configuration not stated)
  KSHV LANA nucl: -1.26 | BasE inh: 2.7

CC(C)(C)NC(=O)c1ccccc1NC(=O)c1cccnc1
  KSHV LANA nucl: -0.223 | BasE inh: 1.2

CC(NC(=O)c1ccco1)C(=O)N1CCc2ccccc2C1 (configuration not stated)
  KSHV LANA nucl: · | BasE inh: 0.1

COC(=O)CN1c2ccccc2NC2=C(C(=O)CC(C)(C)C2)C1c1ccc(OC)cc1 (configuration not stated)
  KSHV LANA nucl: · | BasE inh: -0.3

Cc1onc(-c2c(Cl)cccc2Cl)c1C(=O)NC(=S)Nc1ccccc1
  KSHV LANA nucl: 0.506 | BasE inh: 3.1

O=C(CSc1ccc2c(c1)OCCO2)NC(=O)NC1CCCC1
  KSHV LANA nucl: · | BasE inh: 6.0

COc1ccc2[nH]c3c(=O)n(N)c(=S)[nH]c3c2c1
  KSHV LANA nucl: 0.365 | BasE inh: 3.2

CC1S/C(=N\N=C2\CCCc3ccccc32)NC1=O (configuration not stated)
  KSHV LANA nucl: -0.991 | BasE inh: 1.1

O=C(NCc1n[nH]c(=S)n1Cc1ccccc1)c1ccccc1
  KSHV LANA nucl: -1.03 | BasE inh: 0.3

O=C1CN(C(=O)Cn2cnc3ccc(Cl)cc3c2=O)c2ccccc2N1
  KSHV LANA nucl: · | BasE inh: -26.8

COc1ccc(CNC(=O)CCC2N=C3c4ccccc4N=C(SCC(=O)Nc4cc(C)[nH]n4)N3C2=O)cc1 (configuration not stated)
  KSHV LANA nucl: -0.148 | BasE inh: 3.6

Cc1ccccc1NC(=S)NCC(c1cccnc1)N(C)C (configuration not stated)
  KSHV LANA nucl: -1.24 | BasE inh: 0.8

COc1ccc(N2CCN(C(=O)C(NS(=O)(=O)c3ccc4nc(C)sc4c3)C(C)C)CC2)cc1 (configuration not stated)
  KSHV LANA nucl: -0.262 | BasE inh: 1.9

COc1ccc(S(=O)(=O)Nc2ccc(-c3csc(C)n3)cc2)cc1
  KSHV LANA nucl: · | BasE inh: -3.1

OC(CNc1ccncc1)COc1ccc(OCC(O)CNc2ccncc2)cc1 (configuration not stated)
  KSHV LANA nucl: · | BasE inh: -0.2

O=S(=O)(c1cccs1)N1CCN(Cc2nc3ccccc3s2)CC1
  KSHV LANA nucl: · | BasE inh: 0.1

O=S(=O)(/N=C(\Nc1ccccc1)c1ccccc1)c1ccc(Br)cc1
  KSHV LANA nucl: · | BasE inh: 1.0

Cc1occc1C(=O)NC(C)C12CC3CC(CC(C3)C1)C2 (configuration not stated)
  KSHV LANA nucl: -1.36 | BasE inh: -0.7

CSc1nc2sc(C)cc2c(=O)n1C
  KSHV LANA nucl: 0.0885 | BasE inh: -0.4

O=C([C@@H](c1ccccc1)N1Cc2ccccc2C1=O)N1CCN(Cc2ccccc2)CC1
  KSHV LANA nucl: -0.802 | BasE inh: 2.6

Cn1c(=O)[nH]c(=O)c2[nH]c(CN3CCN(Cc4ccccc4)CC3)nc21
  KSHV LANA nucl: 0.718 | BasE inh: -1.2

Cc1nn(C(=O)c2ccc(Cl)cc2)c(C)c1Sc1nnc(C(F)(F)F)n1C
  KSHV LANA nucl: · | BasE inh: -0.8

CCC(C)NC(=O)c1ccccc1NC(=O)CN1C(=O)c2ccccc2S1(=O)=O (configuration not stated)
  KSHV LANA nucl: -0.704 | BasE inh: 1.5

COc1ccc(F)cc1S(=O)(=O)Nc1ccc2c(c1)N(C(C)=O)CCC2
  KSHV LANA nucl: 0.0145 | BasE inh: 0.4

Fc1ccc(Nc2nc3ccc(Cl)cc3n3cnnc23)c(F)c1
  KSHV LANA nucl: -0.0335 | BasE inh: -0.4

Cc1ccc(NC(=O)N2CCC3(CC2)OCCO3)cc1Cl
  KSHV LANA nucl: -1.61 | BasE inh: -2.3

C=CCOc1ccc2c3c(c(=O)oc2c1)CCC3
  KSHV LANA nucl: · | BasE inh: 2.4

O=C(NCCN1C(=O)S/C(=C\c2ccccc2)C1=O)C1CCCC1
  KSHV LANA nucl: · | BasE inh: 0.3

S=C(NCCCn1ccnc1)Nc1ccccc1
  KSHV LANA nucl: · | BasE inh: 0.3

Cc1nc(Sc2nnc(C3CC3)o2)c2c(-c3ccccc3)csc2n1
  KSHV LANA nucl: · | BasE inh: 1.4

CC(C#N)Oc1ccc(-c2ccc(C#N)cc2)cc1 (configuration not stated)
  KSHV LANA nucl: · | BasE inh: -2.3

Cc1ccc(S(=O)(=O)/C(C#N)=C/Nc2cc(C(F)(F)F)cc(C(F)(F)F)c2)cc1
  KSHV LANA nucl: · | BasE inh: -4.1

OC[C@H]1O[C@@H](Oc2cc(O)cc(/C=C/c3ccc(O)cc3)c2)[C@H](O)[C@@H](O)[C@@H]1O
  KSHV LANA nucl: 1.07 | BasE inh: ·

CCOC(=O)c1c(N2CCN(c3ccccc3)CC2)cc(C)nc1C
  KSHV LANA nucl: -0.511 | BasE inh: -2.3

O=C(CC12CC3CC(CC(C3)C1)C2)N1CCN(c2ccc(F)cc2)CC1
  KSHV LANA nucl: · | BasE inh: -1.4

CC(C)(C)OC(=O)CSc1nnc(-c2nn(Cc3ccccc3)c(=O)c3ccccc23)o1
  KSHV LANA nucl: · | BasE inh: 0.0

NNC(=O)c1ccc(/C=N\O)nc1
  KSHV LANA nucl: · | BasE inh: -1.5

O=c1c2c3c(sc2[nH]c(=S)n1Cc1ccccc1)CCCCC3
  KSHV LANA nucl: · | BasE inh: -0.1

CCSc1nnc(NC(=O)C2CC2)s1
  KSHV LANA nucl: -1.63 | BasE inh: 1.6

Cc1nnc(SC(C)C(=O)c2ccc(Br)cc2)n1C (configuration not stated)
  KSHV LANA nucl: · | BasE inh: 3.8

CC[C@@H]1OC(=O)[C@H](C)[C@H](O[C@H]2C[C@@](C)(OC)[C@@H](O)[C@H](C)O2)[C@@H](C)[C@@H](O[C@@H]2O[C@H](C)C[C@H](N(C)C)[C@H]2O)C(C)(O)C[C@@H](C)[C@@H]2NC(COCCOC)OC([C@H]2C)[C@]1(C)O (some centres not stated)
  KSHV LANA nucl: 0.021 | BasE inh: -0.6

Cc1ccc(N2CCN(c3ccc(C)cc3)C23C(=O)c2ccccc2C3=O)cc1
  KSHV LANA nucl: · | BasE inh: -0.7

Nc1c(C(=O)c2ccc(Cl)cc2)sc2nsc(SCCN3CCOCC3)c12
  KSHV LANA nucl: 1.21 | BasE inh: ·

CC(OC(=O)c1ccco1)C(=O)Nc1nc(-c2ccccc2)cs1 (configuration not stated)
  KSHV LANA nucl: · | BasE inh: -0.6

NC(=O)C1CCCCN1CC(=O)N1N=C(c2ccc(Cl)cc2)CC1c1ccco1 (configuration not stated)
  KSHV LANA nucl: · | BasE inh: 0.8

C[n+]1c2cc(N)ccc2cc2ccc(N)cc21
  KSHV LANA nucl: -8.73&3.58 | BasE inh: 16.2

O=c1c(-c2nc(-c3ccc(C(F)(F)F)cc3)no2)cnc2n1CCS2
  KSHV LANA nucl: 0.536 | BasE inh: 5.1

O=S(=O)(NCCC12CC3CC(CC(C3)C1)C2)c1cccc2nsnc12
  KSHV LANA nucl: · | BasE inh: 3.3

Nc1cc(=O)nc(SCC(=O)Nc2ccc(Cl)cn2)n1-c1ccccc1
  KSHV LANA nucl: · | BasE inh: 0.1

CC(=O)NN1C(=O)c2cccc3c(N(C)C)ccc(c23)C1=O
  KSHV LANA nucl: · | BasE inh: 31.6*

O=C(Nc1ccnn1C1CCCC1)c1cccnc1Oc1ccccc1
  KSHV LANA nucl: · | BasE inh: -1.8

CCOc1ccc(CC(C(=O)NN)C(=O)NN)cc1CN(C)C
  KSHV LANA nucl: 0.045 | BasE inh: 2.7

Cc1cc2ccccc2nc1SCCN1CCOCC1
  KSHV LANA nucl: -0.0055 | BasE inh: -3.4

O=C(OCc1cn2ccccc2n1)c1ccc2c(c1)OCCO2
  KSHV LANA nucl: · | BasE inh: -3.5

CCn1c(O)c(C=Nc2ccc(Cl)c(C(=O)O)c2)c(=O)[nH]c1=O
  KSHV LANA nucl: 0.874 | BasE inh: 4.5

CC(=O)NC1C(OC2=CC3OC(=O)CC(C)=C3C=C2)OC(CO)C(O)C1O (configuration not stated)
  KSHV LANA nucl: 0.236 | BasE inh: -1.6

CC(Oc1ccccc1)c1nc(-c2cccc(Br)c2)no1 (configuration not stated)
  KSHV LANA nucl: 1.68 | BasE inh: -5.0

N#Cc1ccc(COc2ccc(-n3cnnn3)cc2)cc1
  KSHV LANA nucl: · | BasE inh: 2.3

CC(Oc1ccccc1)C(=O)N(Cc1nc(-c2ccccc2)no1)C(C)(C)C (configuration not stated)
  KSHV LANA nucl: 1.5 | BasE inh: 0.4

CCN(CC)C(=O)c1sc2nc3c(cc2c1N)CCCCC3
  KSHV LANA nucl: · | BasE inh: 1.2

CCN(CC)CCNc1ccc2nnc(CCNS(=O)(=O)c3ccc(C)cc3)n2n1
  KSHV LANA nucl: -0.19 | BasE inh: 0.5

N#Cc1cc(Cl)c(N2CCCCCC2)cc1C#N
  KSHV LANA nucl: -0.449 | BasE inh: 1.9

Nc1nc(-c2ccco2)nn1C(=O)Cc1ccccc1
  KSHV LANA nucl: · | BasE inh: -1.0

COCCCn1[nH]nnc1=S
  KSHV LANA nucl: · | BasE inh: 2.2

CC1(C)CC(=O)c2cc(OCC(=O)NCCCN3CCCC3)ccc2O1
  KSHV LANA nucl: 0.089 | BasE inh: -2.0

O=C(NCc1cccnc1)c1ccc(NC(=O)c2ccco2)cc1
  KSHV LANA nucl: 0.383 | BasE inh: 1.4

Filtered by structure, the compounds so far with a halogen (19)
CN1C(=O)N(S(=O)(=O)c2ccc(F)c(F)c2F)C(=O)C1(C)C
  KSHV LANA nucl: · | BasE inh: 0.5

CCc1nn(C(CC)C(=O)NCc2ccccc2F)c(=O)c2cc3occc3n12 (configuration not stated)
  KSHV LANA nucl: -1.26 | BasE inh: 2.7

Cc1onc(-c2c(Cl)cccc2Cl)c1C(=O)NC(=S)Nc1ccccc1
  KSHV LANA nucl: 0.506 | BasE inh: 3.1

O=C1CN(C(=O)Cn2cnc3ccc(Cl)cc3c2=O)c2ccccc2N1
  KSHV LANA nucl: · | BasE inh: -26.8

O=S(=O)(/N=C(\Nc1ccccc1)c1ccccc1)c1ccc(Br)cc1
  KSHV LANA nucl: · | BasE inh: 1.0

Cc1nn(C(=O)c2ccc(Cl)cc2)c(C)c1Sc1nnc(C(F)(F)F)n1C
  KSHV LANA nucl: · | BasE inh: -0.8

COc1ccc(F)cc1S(=O)(=O)Nc1ccc2c(c1)N(C(C)=O)CCC2
  KSHV LANA nucl: 0.0145 | BasE inh: 0.4

Fc1ccc(Nc2nc3ccc(Cl)cc3n3cnnc23)c(F)c1
  KSHV LANA nucl: -0.0335 | BasE inh: -0.4

Cc1ccc(NC(=O)N2CCC3(CC2)OCCO3)cc1Cl
  KSHV LANA nucl: -1.61 | BasE inh: -2.3

Cc1ccc(S(=O)(=O)/C(C#N)=C/Nc2cc(C(F)(F)F)cc(C(F)(F)F)c2)cc1
  KSHV LANA nucl: · | BasE inh: -4.1

O=C(CC12CC3CC(CC(C3)C1)C2)N1CCN(c2ccc(F)cc2)CC1
  KSHV LANA nucl: · | BasE inh: -1.4

Cc1nnc(SC(C)C(=O)c2ccc(Br)cc2)n1C (configuration not stated)
  KSHV LANA nucl: · | BasE inh: 3.8

Nc1c(C(=O)c2ccc(Cl)cc2)sc2nsc(SCCN3CCOCC3)c12
  KSHV LANA nucl: 1.21 | BasE inh: ·

NC(=O)C1CCCCN1CC(=O)N1N=C(c2ccc(Cl)cc2)CC1c1ccco1 (configuration not stated)
  KSHV LANA nucl: · | BasE inh: 0.8

O=c1c(-c2nc(-c3ccc(C(F)(F)F)cc3)no2)cnc2n1CCS2
  KSHV LANA nucl: 0.536 | BasE inh: 5.1

Nc1cc(=O)nc(SCC(=O)Nc2ccc(Cl)cn2)n1-c1ccccc1
  KSHV LANA nucl: · | BasE inh: 0.1

CCn1c(O)c(C=Nc2ccc(Cl)c(C(=O)O)c2)c(=O)[nH]c1=O
  KSHV LANA nucl: 0.874 | BasE inh: 4.5

CC(Oc1ccccc1)c1nc(-c2cccc(Br)c2)no1 (configuration not stated)
  KSHV LANA nucl: 1.68 | BasE inh: -5.0

N#Cc1cc(Cl)c(N2CCCCCC2)cc1C#N
  KSHV LANA nucl: -0.449 | BasE inh: 1.9

Some of the compounds tested. The share of hits here may be higher or lower than overall.
